High-throughput results: PubChem BioAssay, National Center for Advancing Translational Sciences (NCATS)
gsp antagonist = gsp mutant antagonism | Potency, µM (highest dose often 76.9 µM), for the others: top-dose activity change, negative = inhibition, hits mostly inhibitors | gsp-mutant cells, cAMP HTRF, 30 min; control for the full effect not named in the record | actives 0.4% (n = 340,000); active = falling curve of any shape with a large fitted effect; inconclusive = falling curve, mostly with a smaller effect; inactive = flat or rising curve; cell line not stated here;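 also: intracellular cAMP measured with PDE inhibitor Ro 20-1724 present during compound exposure; potency is read from the fitted curve at half-maximal effect; % is scaled to controls: 0 for no effect and ±100 for the full control effect; nearly all actives have a fitted effect of over 65% in size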
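G418-selected cells were plated in DMEM/10% FBS for 16-24 h at 37C, then treated with compounds plus the PDE inhibitor […] (300 uM solution added) for 30 min at 37C. Intracellular cAMP was measured by HTRF after 30 min lysis at room temperature.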
Menin MLL FP FL = menin-MLL binding inhibition, fluorescein peptide; FP activity change, % at 61.4 µM; Fluorescence polarization, fluorescein-MLL peptide displacement from menin; 290,000 tested, under 10 active; inconclusive = falling polarisation curve, or a change in total fluorescence; inactive = total fluorescence flat and polarisation flat or rising; no compound was filed as active; the % refers to the polarisation; negative = inhibition;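 also: % of control where 0% means no effect; inhibitors lower the polarisation; unlabelled MLL peptide was the positive control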
gsp ag = agonists of gsp mutant (McCune-Albright syndrome). gsp mutant cells, cAMP HTRF, 30 min; control for the full effect not named in the record. Potency, µM (top dose mostly 76.9 µM), for inactives: top-dose activation (cAMP increase), actives largely listed as activators. actives 0.13% (n = 340,000). AID 624287; active = well fitted activation curve with a large enough effect; inconclusive = small, poorly fitted or top-dose-only effect, or another doubt; inactive = no such curve, though single readings can be large or run the other way; cell line not stated here;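 also: phosphodiesterase inhibitor Ro 20-1724 added with compounds to block cAMP breakdown; potency is read from the fitted curve at half-maximal effect; nearly all actives have a fitted effect of over 60% in size; about a fifth of the inactives were tested at one dose only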
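Cells in DMEM/10% FBS with G418 were pretreated with compounds in DMSO plus […] (300 uM stock) for 30 min at 37C. cAMP was measured by HTRF (cAMP-d2 plus anti-cAMP antibody-K) after 30 min at room temperature.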
Sfp PPTase inh = inhibitors of Bacillus subtilis Sfp phosphopantetheinyl transferase; Biochemical Sfp PPTase activity, qHTS; Potency, µM, for the others: max response, negative = inhibition, actives largely listed as inhibitors; actives 3.5% (n = 310,000); AID 1490; active = well fitted inhibition curve with a large enough effect; inconclusive = small, poorly fitted or top-dose-only effect, or another doubt; inactive = no such curve, though single readings can be large or run the other way;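 also: the enzyme is Sfp with the accession as filed and its product quenches rhodamine fluorescence; potency is read from the fitted curve at half-maximal effect; 0% = enzyme reaction without inhibitor and -100% = no enzyme wells; top concentration of the series not given in the record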
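After 15 min at room temperature with compound, 15 nM Sfp received 5 uM rhodamine-CoA plus 12.5 uM BHQ-2-ybbR (50 mM Hepes pH 7.6, 10 mM MgCl2). Rate came from the fluorescence difference over 30 min, ex 525/em 598 nm.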
ClpP mod = qHTS Assay for Activators of ClpP | ATP-dependent Clp protease proteolytic subunit (Bacillus subtilis (strain 168)), P80244 | purified B. subtilis ClpP, FRET peptide cleavage, 20 min | Potency, µM (top dose mostly 57.5 µM), for the others: at the top dose activity change, negative = active | actives 1.9% (n = 340,000) | AID 651965, 2013; active = well fitted falling curve with a large enough effect; inconclusive = small, poorly fitted or top-dose-only effect; inactive = no such curve, though single readings can be large or run the other way; also: potency is read from the fitted curve at half-maximal effect; the source files actives as falling curves though it sought activators and does not explain the sign; nearly all actives have a fitted effect of over 65% in size; many hits overshoot -100%
Target sequence (P80244 whole entry, looked up): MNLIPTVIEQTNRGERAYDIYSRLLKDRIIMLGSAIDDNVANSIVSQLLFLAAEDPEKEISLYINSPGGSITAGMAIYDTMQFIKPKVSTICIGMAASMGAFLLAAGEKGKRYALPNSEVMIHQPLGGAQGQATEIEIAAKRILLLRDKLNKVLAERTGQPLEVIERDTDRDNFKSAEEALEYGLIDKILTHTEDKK
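ClpP 10 microg/mL final, pH 8 Tris/KCl buffer with BSA, glycerol, Tween-20; compound pinned in; FRET-FV substrate; RT 20 min; Ex320/Em430; ΔFRET vs ADEP 5.8 microM, DMSO, no enzyme.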
D2 ag = agonists of human D2 dopamine receptor (beta-arrestin) | P14416 | DiscoveRx PathHunter D2 beta-arrestin, luminescence, 90 min; 100% = 57 uM dopamine signal | activation, % (test concentration not listed) | actives 0.084% (n = 360,000); in the data active = activation above about 40%; inconclusive = about 15% to 40%; inactive = below about 15%; also: compound concentration not given in the record; the text of the record calls up to 30% inactive
Target sequence (P14416 whole entry, looked up): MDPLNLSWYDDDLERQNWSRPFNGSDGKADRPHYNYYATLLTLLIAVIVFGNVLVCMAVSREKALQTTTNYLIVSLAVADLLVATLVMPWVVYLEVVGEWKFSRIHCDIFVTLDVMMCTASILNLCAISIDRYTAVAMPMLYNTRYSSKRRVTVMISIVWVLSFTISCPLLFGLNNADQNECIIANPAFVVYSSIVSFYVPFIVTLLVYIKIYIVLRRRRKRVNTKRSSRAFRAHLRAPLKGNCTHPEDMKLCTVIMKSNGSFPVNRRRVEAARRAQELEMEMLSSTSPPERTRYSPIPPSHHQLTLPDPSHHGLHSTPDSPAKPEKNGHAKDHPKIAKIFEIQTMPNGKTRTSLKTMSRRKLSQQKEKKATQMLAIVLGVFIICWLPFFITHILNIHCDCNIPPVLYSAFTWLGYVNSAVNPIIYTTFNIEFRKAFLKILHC
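DiscoveRx PathHunter D2 beta-arrestin cells (2,100/well) attached overnight, then compound-stimulated 90 min at 37 C in HBSS/10 mM HEPES/0.1% Tween-20 buffer; beta-galactosidase complementation read by luminescence after 1 h at ambient temperature. Dopamine 57 uM final (EC100) as control.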
PINK1 modulator = changes PINK1 expression; PINK1 immunofluorescence, high-content cytometry, 24 h; Potency, µM (series often up to 76.6 µM), inactives show at the highest dose activation (PINK1 increase), most hits filed as activators; actives 0.2% (n = 410,000); active = well fitted activation curve with a large enough effect; inconclusive = small, poorly fitted or top-dose-only effect; inactive = flat fitted curve, though single readings scatter; cell line not stated here;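 also: potency is read from the fitted curve at half-maximal effect; % of control where 0% means no effect; nearly all actives have a fitted effect of over 65% in size; a mitochondrial uncoupler was the plate control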
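Stable cell line, 250 cells/well, 12 h attachment; compounds pinned at 5 concentrations, 24 h; CCCP control. Fixed with nuclear dye, primary antibodies 12 h at 10 degrees C, secondary plus cell stain; laser-scanning cytometer read.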
* = called active by the depositor; ? = inconclusive; nt = not tested or not shown; & = joins results of further samples; [ ] = remark or other dose. Random draw from the library; 5.1% or so of the library scored in one or more.

SMILES	gsp antagonist	Menin MLL FP FL	gsp ag	Sfp PPTase inh	ClpP mod	D2 ag	PINK1 modulator
O=C(N/C(=C/c1ccc(F)cc1)C(=O)N1CCOCC1)c1ccco1	nt	nt	-24%	nt	-0.7%	0.3	1.0%
CCOC(=O)C1(C)NC(c2ccco2)C2C(=O)N(C)C(=O)C21 (centres undefined)	9%	-4.6	-3%[15.4 µM]	-10%	nt	-2.2	-1.9%
Cc1ccc(NC(=O)OCCNC(=O)c2ccncc2)cc1	5%	-1.6	-6%[15.4 µM]	13%	nt	-4.5	-0.8%
O=C(Cn1c(=O)n(-c2ccc(F)cc2)c(=O)c2sccc21)c1ccccc1	-14%	11	-36%[inhibitor]	6%	?	-0.9	0.5%
COCCCNC(=O)c1ccc(CSCc2ccc(C)cc2)o1	-3%	-0.2	-25%[15.4 µM]	-14%	-1.6%	-1.5	-1.5%
CCC(=O)N1CCc2cc(S(=O)(=O)NC(Cc3ccccc3)C(=O)NC3CCCCC3C)ccc21 (centres undefined)	0%	1.9	-5%	-7%	-1.4%	0.1	1.3%[38.3 µM]
CCOc1ccc(N/C=C/C(=O)c2ccc(OC)cc2)cc1	0%	1.0	-37%[inhibitor]	6%	nt	-1.7	3.2%
Cc1c(CN2CCC(C(=O)Nc3ccc(Oc4ccccc4)nc3)CC2)cnn1C	23%	nt	25%	11%	-1.9%	4.6	-0.4%
Cc1ccc2[nH]c3ccccc3c(=O)c2c1	4%	0.2	-18%[15.4 µM]	3%	0.3%	-1.0	5.7%
Cc1sc2ncn(CC(=O)N3CCCCC3)c(=O)c2c1S(=O)(=O)N1CCC(C)CC1	-21%	0.3	6%[15.4 µM]	25%	-5.8%	-6.4	2.5%
Cc1cc(C)n(S(=O)(=O)Cc2ccccc2)n1	12%	2.5	-2%	12%	0.5%	-1.6	2.7%[38.3 µM]
CCN(CC)C(=O)C1(P(=O)(c2ccccc2)c2ccccc2)CCC1	3%	3.1	12%	15%	nt	1.5	-1.0%
Cc1ccc(-n2c(Cn3ncc4ccccc4c3=O)n[nH]c2=S)cc1	7%	0.6	?	-11%	0.9%	-5.3	0.9%
CC1(C)NC(=O)N(CC(O)CN2C(=O)CCC2=O)C1=O (centres undefined)	6%	0.0	?	7%	0.7%	-2.4	2.2%[38.3 µM]
O=C(NC(=S)NC(=O)c1ccccc1F)c1ccccc1F	12%	8.6	-1%[15.4 µM]	50µM*	0.8%	-3.0	-2.0%
COc1ccc(C)cc1S(=O)(=O)NCc1cccs1	6%	-2.8	5%[15.4 µM]	6%	nt	0.6	1.5%
COc1ccccc1-c1cncnc1NCc1cccs1	nt	-3.7	nt	0%	nt	nt	0.9%
CCOC(=O)N1CCN(C(=O)c2ccc(CSc3ccc(Cl)cc3)cc2)CC1	?	-0.3	-1%[15.4 µM]	?	nt	1.9	-1.7%
Cn1c(=O)[nH]c2cc3ccccc3cc21	9%	0.4	-7%	-14%	-12%	1.9	-0.3%
O=C1N(C2CCCC2)C[C@@H]2C[C@@H](c3cccn3-c3ccccn3)N3CCC[C@@]123	-7%	-0.9	-20%[15.4 µM]	7%	nt	0.0	0.7%
CN(C)CCOCCSc1ccc(Cl)cc1	15%	0.5	-20%	-15%	-0.6%	-1.2	6.5%[38.3 µM]
O=C(CCSC1=NCCCN1)c1ccc(F)cc1	-2%	nt	?	nt	-14%	0.0	6.7%
NC(=O)C(c1ccccc1)c1ncc(C(F)(F)F)cc1Cl (centres undefined)	4%	-0.2	-4%	7%	-0.5%	-1.1	-3.6%
COC(=O)c1ccccc1Nc1ccccc1	-12%	0.4	-9%	-5%	-2.3%	-0.7	6.3%
Cc1noc(C)c1Cn1c(C)c(C(=O)NCc2ccc3c(c2)OCCO3)sc1=O	nt	nt	nt	nt	-0.6%	11	0.3%
O=C(c1cccc(-n2cnnn2)c1)N1CC=C(c2ccccc2)CC1	-2%	-5.9	0%	6%	-3.3%	1.5	1.5%
Cc1nc2c(OCc3ccc(Cl)cc3)cccn2c1N(C)Cc1cccs1	nt	nt	nt	nt	?	-5.7	?
O=C(NC1CCN(Cc2ccc(Cl)cc2Cl)CC1)c1ccccc1	-11%	-1.8	-9%	5%	-0.5%	-0.2	1.3%
Cc1cn([C@@H](CCCCN)C(=O)NCCCCCCCCCCC(=O)N2CCNCC2)nn1	7%	nt	nt	nt	-1.3%	0.0	0.1%
Cc1cccc(C)c1OCC(=O)NNC(=O)CCCn1c(=O)oc2ccccc21	3%	nt	-2%	nt	-3.0%	-3.0	-1.8%
Cc1nc2ccccc2cc1C(=O)NCc1ccc(F)cc1	nt	13	-10%[15.4 µM]	16%	nt	9.9	-1.1%
Cc1ccc(CNC(=O)Cn2nnc(C(=O)Nc3ccc(Br)cc3)c2N)cc1	10%	nt	-13%	13%	4.3%	2.4	1.7%
Cc1ccc(CSCC(=O)N2CCN(c3ccccc3)CC2)cc1	-4%	1.6	-32%[inhibitor]	-3%	-0.3%	0.1	2.9%
Nc1nc(=S)c2[nH]c(=S)[nH]c2[nH]1	-8%	nt	-25%	nt	nt	-9.4	-1.6%
CC(=O)N1CCC[C@@]2(CCN(Cc3ccc(C#N)cc3)C2)C1	nt	0.6	nt	7%	nt	nt	-0.5%
CC(C)c1ccc(S(=O)(=O)N2CCN(C(=O)C3CCCC3)CC2)cc1	-7%	nt	11%[15.4 µM]	2%	nt	0.3	-0.1%
CCOc1ccccc1NC(=O)c1cc(S(=O)(=O)N2CCN(CC)CC2)ccc1Cl	8%	nt	-5%	9%	-0.1%	-0.3	-2.5%
COCCCn1c(SCC(=O)NC2CCCC2)nnc1-c1ccco1	4%	3.9	?	-12%	-0.7%	1.9	5.7%[38.3 µM]
O=[N+]([O-])c1cccc(NC(=S)N2CCN(S(=O)(=O)c3ccccc3)CC2)c1	-14%	nt	-55%[inhibitor]	8%	-1.3%	-4.1	2.5%
O=C(CN1C(=O)NC2(CCCC2)C1=O)Nc1ccc(F)cc1	11%	-0.8	2%	-2%	0.1%	-1.2	-2.1%
CCN(CC)c1ccc(N=Cc2cc(Br)ccc2O)cc1	?	9.9	-27%	63µM*	-1.8%	-4.7	-1.5%
Cc1ccccc1-c1nn(-c2ccc(F)cc2F)cc1CNCCCN(C)C	-2%	-0.1	-5%[15.4 µM]	5%	nt	-0.8	-1.7%
CCOC(=O)c1c(C)[nH]c(N=Nc2ccccc2)c1C	-5%	3.1	-4%	-24%	-23%	-4.2	2.1%
CCC(C)[C@H](NC(=O)C1CCN(C(=O)[C@H](Cc2ccccc2)NC(=O)OC(C)(C)C)CC1)C(=O)O (some centres undefined)	10%	-13	-3%	5%	3.0%	-3.7	-0.2%
NN=C1c2ccccc2-c2ccc(N)cc21	-2%	nt	-22%	nt	2.1%	-4.2	3.0%
CCn1c(=O)cc(OCC(=O)Nc2nc(C)cs2)c2ccccc21	16%	-7.5	?	7%	-2.0%	-2.9	14%
COc1ccc(NC(=O)c2cccc(N3C(=O)C4CCC(C)CC4C3=O)c2)c(OC)c1 (centres undefined)	-8%	-5.5	9%	0%	nt	7.8	2.5%
CCN(CC)C(=O)c1[nH]cnc1C(=O)N[C@@H](C)C(=O)OCc1ccccc1	6%	1.5	?	12%	-0.6%	-1.5	3.1%
CCc1ccc(-c2cc3c(=O)n(CC(=O)NCCCN4CCN(CC)CC4)nc(C)n3n2)cc1	7%	-2.6	14%	9%	6.6%	-0.7	-2.3%
COc1ccc(NC(=O)CN2C(=O)COc3ccc(S(=O)(=O)N4CCCCCC4)cc32)cc1	4%	nt	15%	10%	2.0%&1.5%	0.4	-1.2%&1.3%
COc1cc(SC)ccc1C(=O)N1CCN(c2ccc(O)cc2)CC1	5%	-0.7	-27%	56µM*	1.9%	?	-1.6%
CCOC(=O)C1CCN(C(=O)COC(=O)C23CC4CC(CC(C4)C2)C3)CC1	6%	nt	?	nt	3.5%	0.0	1.3%
Cc1nn(CC(=O)N/N=C/c2cccs2)c(C)c1[N+](=O)[O-]	3%	3.3	11%[15.4 µM]	18%	-2.0%	-4.3	0.5%
COc1ccc(CNC(=O)COC(=O)c2n[nH]c3ccccc23)cc1OC	-16%	-0.3	21%	23%	?	1.0	-1.6%
Cc1ccc(C(=O)OCC(=O)Nc2ccccc2)cc1NC(=O)c1ccco1	-9%	2.4	16%	10%	27%	0.0	-0.4%
COc1ccc(C)cc1NC(=O)C1CCN(C(=O)c2ccc(C(C)(C)C)cc2)CC1	-26%	-0.1	14%	6%	nt	0.8	1.8%
COc1ccccc1NC(=O)c1ccc(-c2ccccc2F)o1	-20%	5.3	-43%[inhibitor]	-7%	4.2%	-1.1	?
CCn1cc(CN2CCC(n3nccc3NC(=O)c3cccc(F)c3)CC2)cn1	8%	nt	-7%[15.4 µM]	23%	-5.9%	-1.5	1.6%
CCCc1nnc(NC(=O)CCC(=O)N2CCN(S(=O)(=O)c3ccc(F)cc3)CC2)s1	-2%	3.1	29%	4%	-0.7%	-0.3	-0.6%
CCOc1ccc(S(=O)(=O)N2CCN(C(=O)c3ccncc3)CC2)cc1	-9%	nt	22%	6%	-1.6%	-1.8	-0.6%
Next section.
SMILES	gsp antagonist	Menin MLL FP FL	gsp ag	Sfp PPTase inh	ClpP mod	D2 ag	PINK1 modulator
Nn1c(SCC(=O)Nc2ccc(S(=O)(=O)N3CCCC3)cc2)nnc1C(F)(F)F	7%	1.3	4%	11%	-1.0%	1.9	0.2%
Cc1ccc2nc(Nc3ccccc3)c(C=O)c(=O)n2c1	7%	-1.4	-3%[15.4 µM]	6%	-0.7%	5.6	3.5%
CC(/C=C/c1ccc(C)o1)=C\C(=O)O	7%	-0.7	?	10µM*	-2.3%	-4.1	12%
c1ccc(-n2cnc3ccccc32)nc1	6%	-1.0	-5%[15.4 µM]	7%	-1.0%	1.5	-0.5%
Cc1csc(SCc2c(C(=O)O)oc3ccccc23)n1	-23%	1.5	0%	5%	1.9%	-2.8	0.2%
CCOCCCNC(=O)CCc1ccc(-n2cnc3cccnc32)cc1	5%	?	1%	13%	nt	1.9	1.4%
O=[N+]([O-])c1cc([N+](=O)[O-])c(N2CCOCC2)cc1NCc1ccccc1	0%	-1.5	?	13%	1.6%	-2.4	-2.0%
Cc1cc(Nc2ccccc2Br)n2nc(C)nc2n1	-6%	8.8	4%	9%	-1.6%	-9.7	3.7%
